Assay outcomes as filed in PubChem.
TRPML1 inh = human mucolipin-1 channel inhibition; Q9GZU1; TRPML1-inducible cells, Ca2+ dye fluorescence, FDSS; active compounds read low; inhibition of EC80 agonist-evoked calcium signal; activity change, negative = inhibition, % (concentration not given with the values); 0.02% of 390,000 active; AID 624415; in the data active means activity change below about -50%; inconclusive means about -30% to -50%; inactive means above about -30%;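 also: stimulus is agonist 54-4 at its EC80 concentration; % is scaled to controls: 0 for no effect and ±100 for the full control effect; the text of the record puts the active cut at -80%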
Target sequence (Q9GZU1 whole entry, looked up): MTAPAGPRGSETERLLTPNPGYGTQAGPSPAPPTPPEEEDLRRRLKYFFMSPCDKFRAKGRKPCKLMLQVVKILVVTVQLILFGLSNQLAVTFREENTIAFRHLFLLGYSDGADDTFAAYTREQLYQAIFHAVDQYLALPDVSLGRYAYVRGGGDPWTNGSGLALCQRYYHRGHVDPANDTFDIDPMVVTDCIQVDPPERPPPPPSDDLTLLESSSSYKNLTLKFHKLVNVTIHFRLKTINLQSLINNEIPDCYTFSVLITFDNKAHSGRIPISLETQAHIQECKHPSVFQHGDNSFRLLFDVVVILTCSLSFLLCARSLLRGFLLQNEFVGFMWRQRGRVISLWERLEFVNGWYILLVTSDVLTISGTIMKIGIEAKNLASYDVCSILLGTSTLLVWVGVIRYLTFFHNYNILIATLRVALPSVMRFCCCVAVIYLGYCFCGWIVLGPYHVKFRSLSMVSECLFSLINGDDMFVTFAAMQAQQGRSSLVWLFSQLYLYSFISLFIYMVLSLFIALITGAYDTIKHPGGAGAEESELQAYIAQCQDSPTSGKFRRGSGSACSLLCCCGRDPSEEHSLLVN
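Calcium fluorescence in TRPML1-DL cells induced overnight with Tet: a 110 s read after compound pin addition, then a 110 s antagonist read after challenge with 54-4 at 4 uM final (EC80).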
TRPML1 ag = activates the human TRPML1 channel; Q9GZU1; TRPML1-expressing cells, Ca2+ dye fluorescence, FDSS; host cell line not named in the record; reference of the full effect not given here; activation, % (test concentration not listed); 0.12% of 410,000 active; in the data active = activation above about 50%; inconclusive = about 30% to 50%; inactive = below about 30%; also: 0% is about no effect; the text of the record puts the active cut at 80%
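Kinetic FDSS Ca2+ read in Tet-induced TRPML1-DL cells (ABD Ca8 dye plus quencher, 45-90 min RT loading): baseline, then compound, then 110 s agonist window; EC80 agonist 54-4 at 4uM final added afterwards for a 110 s antagonist window.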
Six1-Eya2 inh = blocks human Six1 binding to Eya2; AlphaScreen GST-Six1/His-Eya2 binding, biochemical; active compounds read low; control for the full effect not named in the record; activity change, % (test concentration not listed); 0.56% of 360,000 active; Q15475+O00167; AID 651725; in the data active = activity change below about -65%; inconclusive = about -30% to -65%; inactive = above about -30%; also: % is scaled to controls: 0 for no effect and ±100 for the full control effect
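GST-Six1 + His-Eya2 (5X stock: 250/500 nM); Tris pH 8.0, 300 mM NaCl, 0.05% BSA, 0.02% Tween 20; GSH donor/Ni acceptor beads; 1 h 37 °C dark; AlphaScreen readout.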
CtBP-E1A inh = CtBP/E1A binding inhibition. AlphaScreen GST-E1A/His-CtBP binding, 1536-well; active compounds read low; control for the full effect not named in the record. activity change, % (test concentration not listed). 0.49% of 340,000 active; in the data active means activity change below about -65%; inconclusive means about -30% to -65%; inactive means above about -30%; also: % is scaled to controls: 0 for no effect and ±100 for the full control effect
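AlphaScreen with 125 nM GST-E1A and 125 nM His-CtBP (5X stocks) in Tris pH 8.0, 300 mM NaCl, BSA, Tween 20, TCEP. Compounds preincubated 2 h at 37 deg C, then glutathione donor/nickel acceptor beads added for 1 h at 37 deg C in dark.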
TRPV1 potentiator = potentiators of human vanilloid receptor 1 (TRPV1). Q8NER1. TRPV1-expressing cells, Fluo-8 calcium influx, capsaicin EC20 potentiation; host cell line not named in the record; control for the full effect not named in the record. potentiation, % at 8.33 µM. 0.02% of 320,000 active. AID 540277; active means potentiation above 80%; inconclusive means 30% to 80%; inactive means below 30%; also: 0% is about no effect
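Cells expressing TRPV1 were dye-loaded with Fluo-8 and read kinetically: 10 s baseline, 3 min after compound (agonist portion), then 2 min after EC20 capsaicin (allosteric enhancer portion). Calcium-bound dye fluorescence at 480/520 nm.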
D2 PAM = positive allosteric modulators of human D2 dopamine receptor; 0.23% of 360,000 active; DiscoveRx D2 beta-arrestin cells, luminescence, 90 min; 100% = 57 uM dopamine signal; AID 624464; P14416; potentiation, % (test concentration not listed); active = potentiation of 50% or more; inconclusive = 30% to 50%; inactive = 30% or less;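 also: compound concentration not given in the record; tested on top of an EC20 dose of dopamine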
Target sequence (P14416 whole entry, looked up): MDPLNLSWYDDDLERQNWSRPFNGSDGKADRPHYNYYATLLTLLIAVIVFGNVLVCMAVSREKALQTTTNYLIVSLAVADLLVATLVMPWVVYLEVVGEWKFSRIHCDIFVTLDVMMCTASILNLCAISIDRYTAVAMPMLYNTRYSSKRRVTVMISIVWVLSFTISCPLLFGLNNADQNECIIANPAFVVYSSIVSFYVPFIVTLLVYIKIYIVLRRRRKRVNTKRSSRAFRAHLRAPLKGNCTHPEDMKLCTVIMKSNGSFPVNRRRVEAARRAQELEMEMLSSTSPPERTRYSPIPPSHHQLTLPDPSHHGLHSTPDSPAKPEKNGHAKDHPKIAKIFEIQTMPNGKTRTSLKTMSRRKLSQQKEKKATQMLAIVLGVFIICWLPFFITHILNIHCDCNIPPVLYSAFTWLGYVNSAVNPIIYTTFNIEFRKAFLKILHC
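D2 cells co-treated with compound plus 50 nM dopamine (EC20) for 90 min at 37 deg C to detect potentiation. Beta-arrestin recruitment was read as enzyme-fragment luminescence after 1 h at ambient temperature. Full response was set by 57 uM dopamine.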
* hit, by the source's call; u = inconclusive; x = not tested or not shown; & = joins results of further samples. Hits appear at their usual frequency. Share with any hit: about 0.95%.

SMILES	TRPML1 inh	TRPML1 ag	Six1-Eya2 inh	CtBP-E1A inh	TRPV1 potentiator	D2 PAM
O=C(CCS(=O)(=O)c1cc(Br)cc2c1N(C(=O)C1CC1)CC2)NCC1CCCO1 (centres undefined)	12	0.0	2	3	-4	-7
O=C1Nc2ccc(Br)cc2C1(O)Cc1ccncc1 (centres undefined)	26	-0.2	0	7	14	17
COc1ccccc1N1CC(C(=O)OCC(=O)Nc2c(C)cccc2C)CC1=O (centres undefined)	-3	0.6	-6	2	5	-4
CCCCn1c(SCC(=O)c2ccc(OC)cc2OC)nc2cc(S(N)(=O)=O)ccc21	-5	1.3	-5	-20	-6	0
Cc1ccc(CCN2CC(C(=O)NCCCOC(C)C)CC2=O)cc1 (centres undefined)	11	0.9	5	3	-2	-5
CN(c1ccccc1C(=O)Nc1ccc(CC#N)cc1)S(=O)(=O)c1ccccc1	4	0.3	7	16	-30	-15
C[C@H](CO)N1C[C@H](C)[C@@H](CN(C)Cc2ccncc2)Oc2ccc(NC(=O)CCCCCC(=O)Nc3ccccc3N)cc2C1=O	1	-0.6	-4	-2	x	-12
Oc1ccc(Cl)cc1CNc1cccc2cccnc12	-15	-0.8	-4	x	16	-7
CCOP(=O)(c1ccc(N(C)C)cc1)C(O)c1ccncc1 (centres undefined)	-5	0.2	-1	x	13	-19
COc1ccc(S(=O)(=O)N2CCCC(C(=O)N3CCCCCC3)C2)cc1 (centres undefined)	4	-0.9	-3	1	-12	-26
COc1ccc(C(=O)NCC(c2ccco2)N2CCCC2)cc1S(=O)(=O)N1CCCCC1C (centres undefined)	-8	0.3	-3	-6	-2	-3
Cc1ccc([N+](=O)[O-])cc1NC(=O)c1ccoc1C	-20	0.6	1	1	-1	4
Cc1ccc(S(=O)(=O)Nc2ccccc2N(C)S(=O)(=O)c2ccc(C)cc2)cc1	-12	0.8	1	-21	17	-10
CC(=O)NC1(C(F)(F)F)C(=O)Nc2c1c(=O)[nH]c(=O)n2-c1ccccc1 (centres undefined)	0	0.8	3	1	6	0
CCc1cc(Cn2nc(-c3ccccc3)cc2C(=O)NCc2cccc(Br)c2)on1	12	1.4	4	15	x	-7
O=C(c1ccccc1)C1N=NCC1c1ccc(Cl)cc1 (centres undefined)	0	-0.6	-3	-2	x	-3
COc1ccc(CCN(Cc2cc3cc(C)cc(C)c3nc2Cl)C(=O)C2CC2)cc1	76	2.5	-1	-3	-16	-9
Cc1ccccc1NC(=O)Nc1cnccn1	13	0.4	5	4	5	-6
CN1C(=S)SC(/[N+]([O-])=C\c2cccs2)C1(C)C (centres undefined)	10	-0.5	2	2	-19	5
CC1CC(C)CN(CC(O)COCCOc2ccc(Br)cc2)C1 (centres undefined)	7	0.8	3	10	-3	-8
COc1cccc(NC(=O)CNC(=O)c2cccs2)c1	-11	1.3	10	-3	4	-1
O=C(CCN1C(=O)CSc2ccccc21)Nc1ccc(OC(F)(F)F)cc1	-6	0.5	3	3	11	-4
COc1ccc(Br)cc1CNC(=O)CCCc1cn(C)c2ccccc12	-7	0.9	-18	-14	-4	-3
O=C(O)CCn1c(CO)nc2ccccc21	16	-0.1	3	5	0	-3
COc1ccc(NC(=O)CS(=O)c2ccc(Br)cc2)cc1 (centres undefined)	5	-0.3	11	4	-10	-9

Of the compounds above, these contain a thiophene ring, fused or not:
SMILES	TRPML1 inh	TRPML1 ag	Six1-Eya2 inh	CtBP-E1A inh	TRPV1 potentiator	D2 PAM
CN1C(=S)SC(/[N+]([O-])=C\c2cccs2)C1(C)C (centres undefined)	10	-0.5	2	2	-19	5
COc1cccc(NC(=O)CNC(=O)c2cccs2)c1	-11	1.3	10	-3	4	-1

(continued)
SMILES	TRPML1 inh	TRPML1 ag	Six1-Eya2 inh	CtBP-E1A inh	TRPV1 potentiator	D2 PAM
Cn1ncc2c(Nc3ccccc3Br)ncnc21	45	0.9	2	14	8	-18
COc1ccc(CNC(=O)CN2C(=O)NC3(CCCCCC3)C2=O)cc1	-5	0.5	-1	9	x	15
O=C(Nc1cccnc1)c1ccc(Br)c(S(=O)(=O)N2CCCC2)c1	33	-0.5	-6	-3	-22	-21
N#C/C(=C\c1ccc(O)c(O)c1)C(=O)N1CCc2ccccc21	16	1.0	2	3	-5	-4
O=c1[nH]c2ccccc2nc1/C=C/c1ccc(Cl)cc1	15	-0.2	8	-7	0	-14
CCN1C(=O)[C@H]2[C@@H](c3ccc(-c4cccc(Cl)c4)cc3)N[C@@](CC(C)C)(C(=O)OC)[C@H]2C1=O	-22	1.3	5	x	x	-9
CCCn1c(CCC(=O)O)nc2cc(S(=O)(=O)N3CCCC3)ccc21	31	0.4	-2	0	-5	0
O=C(CNC(=O)C(c1ccccc1)c1ccccc1)N/N=C\c1cccc(O)c1	24	0.0	1	-5	3	5
COc1cc(/C=C/C(=O)c2cccc([N+](=O)[O-])c2)cc(OC)c1OC	59	1.8	-3	-3	10	-16
Cc1ccc(/C=C/C(=O)OCC(=O)Nc2ccc3[nH]c(=O)[nH]c3c2)o1	-4	-0.2	0	1	-4	-1
Cc1noc(C)c1COC(=O)c1cc(C)n(-c2ccccc2)c1C	-9	2.3	-17	-22	-6	-9
COc1ccccc1C(=O)Nc1ccc(S(=O)(=O)Nc2cc(C)nc(C)n2)cc1	-2	0.0	-3	-1	15	-9
COc1cccc(N2CC(C(=O)Nc3nnc(SCC(=O)Nc4cc(C)on4)s3)CC2=O)c1 (centres undefined)	0	-1.0	8	8	-26	-3
C=CCNC(=O)/C(C#N)=C/c1ccccc1OCc1ccc(C(=O)OC)cc1	16	1.5	1	x	-5	-13
CN1C(=O)C(O)(CC(=O)/C=C\c2ccc3c(c2)OCO3)c2ccccc21 (centres undefined)	-8	-0.4	11	x	14	-5
CN(C)Cc1c(C(=O)N/N=C/c2cccc(OCc3c(F)cccc3Cl)c2)nnn1-c1nonc1N	26	-0.3	-6	-24	-7	-8
CCSc1nnc(NC(=O)c2nc(-c3ccccc3)n(-c3ccccc3)n2)s1	-1	1.4	-11	-13	5	-5
CC1CC1C(=O)OCC(=O)Nc1cccc(S(=O)(=O)NC2=NCCCCC2)c1 (centres undefined)	-13	0.2	-3	-15	3	-4
O=C(NCCc1ccccc1)c1cc(-c2ccco2)on1	27	0.5	2	1	-18	2
COc1ccccc1CN=Cc1[nH]c2ccc(Br)c(Cl)c2c1O	15	2.1	-1	-3	-14	-49
COCCn1c(=NC(=O)c2cccs2)sc2cc(NC(C)=O)ccc21	20	1.0	7	9	u	-27
Cc1nc(=S)n(-c2ccccc2)[nH]1	-20	-0.8	0	2	u	-3
Cc1cc(C)cc(NC(=O)CCNS(=O)(=O)c2ccc3c(c2)oc(=O)n3C)c1	15	1.3	-2	0	6	-5
CC(C)SCc1cc(N2CCCC2)nc(-c2ccccc2)n1	-8	-0.7	12	-1	-2	-7
COc1ccc(C(=O)c2c3ccccc3[n+]([O-])n2CCCN)cc1	2&-24	-0.5&-0.2	-4&-9	-3	11	-6

Brought forward from above: 4 entries, then new ones.
SMILES	TRPML1 inh	TRPML1 ag	Six1-Eya2 inh	CtBP-E1A inh	TRPV1 potentiator	D2 PAM
Cc1nc(=S)n(-c2ccccc2)[nH]1	-20	-0.8	0	2	u	-3
Cc1cc(C)cc(NC(=O)CCNS(=O)(=O)c2ccc3c(c2)oc(=O)n3C)c1	15	1.3	-2	0	6	-5
CC(C)SCc1cc(N2CCCC2)nc(-c2ccccc2)n1	-8	-0.7	12	-1	-2	-7
COc1ccc(C(=O)c2c3ccccc3[n+]([O-])n2CCCN)cc1	2&-24	-0.5&-0.2	-4&-9	-3	11	-6
CN(C)N1C(N)=C(C#N)C(c2ccccc2Cl)C2=C1CCCC2=O (centres undefined)	5	-1.2	1	-1	13	0
O=C(NCCN1CCCC1)c1ccc(Cl)cc1Cl	-1	0.6	4	8	24	-15
CCOC(=O)C(C)n1cnc2scc(-c3ccc(C)c(C)c3)c2c1=O (centres undefined)	-4	0.2	-1	-2	15	1
Cc1nc2c(C)cccn2c1/C(O)=C1\C(=O)C(=O)N(CCN(C)C)C1c1cccs1 (centres undefined)	9	0.8	-8	-7	x	-5
COc1ccc(C(=O)Nc2nnc([C@@H]3C[C@H](O)[C@@H](CO)O3)s2)cc1	x	-1.1	6	12	x	-1
CCOc1cc(/C=N/NC(=O)C(=O)NCC2CCCO2)ccc1OCC(=O)N1CCOCC1 (centres undefined)	-7	0.4	2	-7	2	-7
CC(=O)N1CCc2cc(Br)cc(S(=O)(=O)NCc3ccc(Cl)cc3)c21	10	0.2	3	1	1	-20
O=C(CCn1c(=O)sc2ccccc21)Nc1ccon1	6	-0.1	3	2	u	-19
O=C(c1ccc(Cn2cc([N+](=O)[O-])cn2)o1)N1N=C(C(F)F)CC1(O)C(F)F (centres undefined)	6	-0.8	4	19	-1	-1
CCc1nonc1NC(=O)c1oc2ccccc2c1C	-11&-8	2.3&3.3	0	x	-14	-4
CCCC(=O)NC(c1ccc(OCC)cc1)c1ccc(OC)c(OC)c1 (centres undefined)	-3	-0.3	-21	0	5	-2
CC1=NNC(=O)/C1=C\c1cn(-c2ccccc2)nc1-c1ccccc1	-14	14	-8	x	-21	2
Oc1cccc(/C=N/Nc2cc(N3CCCC3)nc(N3CCCC3)n2)c1	7	1.2	u	u	4	-32
O=C(CSc1cn(CCNC(=O)c2cccs2)c2ccccc12)NCC1CCCO1 (centres undefined)	-6	-0.7	7	-2	8	3
COc1ccc(OC)c(/C=C/C(=O)Nc2ccc3c(c2)CCC3)c1	29	-0.4	-17	6	-2	-42
CC1OC(Oc2c(-c3cc(O)c(O)c(O)c3)oc3cc(O)cc(O)c3c2=O)C(O)C(O)C1O (centres undefined)	x	x	-17	-5	0	-21
CCC1CCCCN1C(=O)CSc1nnc(-c2c[nH]c3ccccc23)o1 (centres undefined)	-8	2.4	-17	u	-9	-3
CC(OC(=O)c1cccs1)C(=O)NCc1ccccc1 (centres undefined)	-11	-0.1	6	1	3	3
CCCCNC(=O)Cn1cnc2c(cnn2-c2ccc(C)cc2)c1=O	0	0.2	2	6	-6	0
Cc1nn(CC(=O)N2CCC(C)CC2)c(=O)c2nn(-c3ccccc3)c(C)c12	5	-0.6	3	2	-25	-2
CN(CC(=O)Nc1ccc2c(c1)OCCO2)CC(=O)Nc1ccc(F)c(F)c1F	3	0.0	0	1	x	-23
CCOC(=O)CNC(=O)/C=C/c1ccc2c(c1)OCO2	-9	-0.4	-4	3	-7	-2
Cc1ccc2cc3c(nc2c1)N(Cc1ccco1)CC3	-1	1.2	-1	2	u	-32
C#CCOCCOCCOCCNc1nc(N2CCN(C(=O)Cn3cc(CCO)nn3)CC2)nc(N2CCN(C(=O)Cn3cc(CCO)nn3)CC2)n1	0	-0.6	13	12	x	-2
COc1cccc(N=Nc2c(C)[nH]n(-c3ccccc3)c2=O)c1	x	x	u	x	0	-14
Cn1cnc([N+](=O)[O-])c1Sc1ccc(Br)cc1	-8	1.2	4	x	11	-10
OC(c1ccc(F)c(F)c1)c1nc(-c2cccc3cccnc23)cs1 (centres undefined)	x	-0.3	0	7	x	0
